Source: PubChem
VDR inh – vitamin D3 receptor (human) inhibition. Potency, µM, inactives show max response, negative = inhibition, usual class: inhibitors. hit rate 0.93% among 400,000. VDR-SRC2-3 peptide fluorescence polarization, 2 h. P11473; active = well fitted inhibition curve with a large enough effect; inconclusive = small, poorly fitted or top-dose-only effect, or another doubt; inactive = no such curve, though single readings can be large or run the other way; also: series mostly up to about 120 µM
Target sequence (P11473 whole entry, looked up): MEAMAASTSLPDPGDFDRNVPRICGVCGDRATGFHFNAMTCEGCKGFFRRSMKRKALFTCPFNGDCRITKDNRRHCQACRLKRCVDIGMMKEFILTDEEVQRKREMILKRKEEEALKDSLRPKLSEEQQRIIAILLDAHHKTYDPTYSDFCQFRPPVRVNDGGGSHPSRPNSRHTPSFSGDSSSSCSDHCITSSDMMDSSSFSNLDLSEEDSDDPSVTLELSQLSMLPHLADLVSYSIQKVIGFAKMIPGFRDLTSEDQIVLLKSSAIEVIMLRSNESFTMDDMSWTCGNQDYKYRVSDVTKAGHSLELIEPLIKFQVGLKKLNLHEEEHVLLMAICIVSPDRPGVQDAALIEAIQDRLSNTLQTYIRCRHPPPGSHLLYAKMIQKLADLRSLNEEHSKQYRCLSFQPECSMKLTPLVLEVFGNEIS
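Compounds are added to VDR with labelled SRC2-3 coactivator peptide and held 2 h at room temperature. Inhibition of the VDR–peptide interaction is then read as a change in fluorescence polarization.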
Active calls of the source: *. % is scaled to controls: 0 for no effect and ±100 for the full control effect; potency is read from the fitted curve at half-maximal effect.

COc1cc(C(=S)N2CCOCC2)cc(OC)c1OC(=O)c1ccc(F)cc1 was read as VDR inh inconclusive.
Screening O=C(C1CCC(CNS(=O)(=O)c2ccc(F)cc2)CC1)N1CCOCC1 (stereo not given) returned VDR inh -6%.
COc1ccc(N2CCN(C(=O)C3CCCN(S(=O)(=O)c4cccc5cccnc45)C3)CC2)cc1 (stereo not given) was read as VDR inh -9%.
`CCOC(=O)C(=O)Nc1nnc2n1CCS2` gave VDR inh -11%.
O=C(CN(C(=O)CNC(=O)c1cccs1)c1ccc(F)cc1)NC1CCCCC1 was read as VDR inh -17%.
`COc1ccccc1NC(=O)Cn1c(=O)n(CCCCCC(=O)NCc2ccccc2)c(=O)c2sccc21` gave VDR inh inconclusive.
Screening Cc1cccc(NC(=O)c2sc(-n3nc(C)c(CCC(C)C)c3C)nc2C)c1C returned VDR inh 16%.
For Cc1ccc(S(=O)(=O)N(Cc2ccccc2)c2ccccc2C(=O)NCc2cccnc2)cc1 the results were VDR inh -6%.
For O=C1CCN2C=Nc3cccc4ccc1c2c34 the results were VDR inh -16%.
C=CCOC(=O)C1=C[C@H](c2ccc(Br)cc2)C[C@H](OCCCCO)O1 was read as VDR inh -10%.
`Cc1nc(N)sc1-c1csc(Nc2ccc(S(N)(=O)=O)cc2)n1` gave VDR inh inconclusive.
Screening Cc1ccc(Cl)c2sc(NC(=O)C3CC3)nc12 returned VDR inh -11%.
`CC(C)CC(NC(=O)c1ccccc1)C(=O)N/N=C/c1ccco1` (stereo not given) gave VDR inh -13%.
COc1ccccc1N1CCN(CCN(C(=O)c2ccc(I)cc2)c2ccccn2)CC1 was read as VDR inh -19%.
O=C(O)CSc1ncn[nH]1 was read as VDR inh 11%.
`CCOC(=O)CNC(=S)N(Cc1ccccc1)Cc1cccs1` gave VDR inh 5%.
For Cc1ccccc1Cn1c(CN2CCc3ccccc3C2)nc2c1c(=O)n(C)c(=O)n2C the results were VDR inh -11%.
O=C(NCCc1c[nH]c2ccccc12)c1cccc(S(=O)(=O)Nc2ccccc2Cl)c1 was read as VDR inh inconclusive.
`NC(=O)COc1c(-c2ccc(Br)o2)oc2ccccc2c1=O` gave VDR inh -27%.
`CSCCC(NC(=O)COc1ccccc1)C(=O)N1CCN(c2ccccc2F)CC1` (stereo not given) gave VDR inh 9%.

Gathered by group, the entries above containing a carbonyl joined to an NH by a bond outside any ring (10)
`CCOC(=O)C(=O)Nc1nnc2n1CCS2` gave VDR inh -11%.
O=C(CN(C(=O)CNC(=O)c1cccs1)c1ccc(F)cc1)NC1CCCCC1 was read as VDR inh -17%.
`COc1ccccc1NC(=O)Cn1c(=O)n(CCCCCC(=O)NCc2ccccc2)c(=O)c2sccc21` gave VDR inh inconclusive.
Screening Cc1cccc(NC(=O)c2sc(-n3nc(C)c(CCC(C)C)c3C)nc2C)c1C returned VDR inh 16%.
For Cc1ccc(S(=O)(=O)N(Cc2ccccc2)c2ccccc2C(=O)NCc2cccnc2)cc1 the results were VDR inh -6%.
Screening Cc1ccc(Cl)c2sc(NC(=O)C3CC3)nc12 returned VDR inh -11%.
`CC(C)CC(NC(=O)c1ccccc1)C(=O)N/N=C/c1ccco1` (stereo not given) gave VDR inh -13%.
O=C(NCCc1c[nH]c2ccccc12)c1cccc(S(=O)(=O)Nc2ccccc2Cl)c1 was read as VDR inh inconclusive.
`NC(=O)COc1c(-c2ccc(Br)o2)oc2ccccc2c1=O` gave VDR inh -27%.
`CSCCC(NC(=O)COc1ccccc1)C(=O)N1CCN(c2ccccc2F)CC1` (stereo not given) gave VDR inh 9%.

(next part)
COC(=O)CC(=O)CSc1nc(C)cc(C)c1C#N was read as VDR inh 2%.
`CCOc1cc(N2CCOCC2)c(OCC)cc1NC(=O)C(C)C` gave VDR inh 13%.
For Cc1c(C(=O)N2CCCC2)oc2c1-c1nn(CC(=O)NC(C)c3ccccc3)cc1CC2 (stereo not given) the results were VDR inh 10%.
Screening CCn1c(=O)c2cc(C(=O)NCCc3ccc(Cl)cc3)sc2c2ccccc21 returned VDR inh -6%.
For COc1cc(/C=N/NC(=O)CNc2n[nH]c(=O)[nH]c2=O)ccc1OCc1ccccc1 the results were VDR inh 10%.
O=C(CCn1cnc2ccccc21)N/N=C/c1ccccc1O was read as VDR inh -8%.
`CN(C)C(C)(C)/C=C/C(O)(c1ccccc1)c1ccccc1` gave VDR inh 7%.
For Cc1cn(C2OC(COC(=O)c3ccccc3)C(O)C2O)c(=O)[nH]c1=O (stereo not given) the results were VDR inh 7%.
For Cc1ccc(CN(C)C(=O)C2CCC(=O)N(C3CCCCCC3)C2)cc1 (stereo not given) the results were VDR inh 8%.
CCc1ccc(-n2c(=O)c3cccnc3n2CC(=O)N(CC)c2cccc(C)c2)cc1 was read as VDR inh 13%.
COc1ccc(S(=O)(=O)N(C)CC(=O)N2CCCCCC2)cc1OC was read as VDR inh 3%.
COc1ccc(C(=O)Nc2ccccc2N2CCOCC2)cc1S(=O)(=O)N1CCOCC1 was read as VDR inh -2%.
COC(=O)c1c(N2C(=O)CC(Sc3ncccc3C(=O)O)C2=O)sc(C)c1C (stereo not given) was read as VDR inh 26%.
O=C(O)CCN1C(=O)/C(=C\c2ccc(OCc3ccccc3)c(OCc3ccccc3)c2)SC1=S was read as VDR inh -23%.
`Cc1ccc(NS(=O)(=O)c2ccc3[nH]c4c(c3c2)CCCCCC4)cc1C` gave VDR inh 3%.
CCNc1nc(NCC)n2c(SCC(=O)Nc3ccccc3)nnc2n1 was read as VDR inh -14%.
Cc1ccc(C2=Nc3ccccc3N(CC(=O)NCc3ccccc3Cl)C(=O)C2)cc1C was read as VDR inh 5%.
`CN(CC(=O)Nc1ccc(N2CCOCC2)cc1)C(=O)c1cc2c(s1)CCCC2` gave VDR inh 6%.
For COc1cc(NC(=O)c2c(F)c(F)c(OC)c(F)c2F)ccc1NC(=O)c1cccs1 the results were VDR inh -14%.
Fc1ccc2cnc(-c3ccccc3)c(-c3cccc(C(F)(F)F)c3)c2c1 was read as VDR inh -11%.

2 entries picked at random from the list so far:
For COc1cc(NC(=O)c2c(F)c(F)c(OC)c(F)c2F)ccc1NC(=O)c1cccs1 the results were VDR inh -14%.
`Cc1ccc(NS(=O)(=O)c2ccc3[nH]c4c(c3c2)CCCCCC4)cc1C` gave VDR inh 3%.

Continued.
For S=C(NCc1ccco1)Nc1ccc(Cl)cn1 the results were VDR inh -9%.
For CCn1cc(C(=O)NN)c(=O)c2cc(F)c(N3CCOCC3)cc21 the results were VDR inh 24%.
For O=C1c2ccccc2C(Nc2ccccc2F)N1c1cccnc1 (stereo not given) the results were VDR inh -7%.
`O=C(CCNS(=O)(=O)c1ccc(OC(F)(F)F)cc1)N1CCCC1` gave VDR inh -15%.
`COC(=O)c1cc(S(=O)(=O)Nc2nn(C)c3cccc(F)c23)oc1C` gave VDR inh 2%.
Screening CC(C)(C)OC(=O)C[C@H]1C/C=C\C[C@@H](CC(=O)N(CCO)Cc2ccccc2)C(=O)NC[C@@H](c2ccccc2)OC1=O returned VDR inh -13%.
`S=C(c1ccc(-c2ccc(Cl)cc2)o1)N1CCCCC1` gave VDR inh -18%.
Screening CCCOc1ccc(OCCNC2CCCC2)cc1 returned VDR inh -13%.
Screening Cc1ccc(COc2coc(CN3CCN(C(=O)c4ccco4)CC3)cc2=O)cc1 returned VDR inh -5%.
For COc1cccc(C(=O)NCC(c2cccnc2)N2CCN(c3ccccc3OC)CC2)c1 (stereo not given) the results were VDR inh -21%.
Screening COc1cc(/C=C/C(=O)O)cc(S(=O)(=O)NCC2CCCO2)c1OC (stereo not given) returned VDR inh 14%.
For CCCC1CCc2c(sc(NC(=O)OCC)c2C#N)C1 (stereo not given) the results were VDR inh 7%.
`O=C(Cn1c(=O)oc2cc(S(=O)(=O)N3CCCCC3)ccc21)N1CCc2ccccc21` gave VDR inh -14%.
`Cc1ccc(Cn2nnc3c(=O)[nH]c(C4CCN(C(=O)c5cccs5)CC4)nc32)cc1` gave VDR inh -3%.
Screening COc1ccc(NC(=O)N(C)C[C@H]2Oc3ccc(NS(=O)(=O)c4cccs4)cc3C(=O)N([C@@H](C)CO)C[C@@H]2C)cc1 returned VDR inh -13%.
Screening CCc1nnc(NC(=O)CCC(=O)Nc2ccccc2)s1 returned VDR inh -8%.
Screening COc1ccc(OC)c(C2C(C(C)=O)=C(O)C(=O)N2CCN2CCOCC2)c1 (stereo not given) returned VDR inh -5%.
Screening COc1ccc(C(=O)C[n+]2ccc(C)cc2)cc1 returned VDR inh 11%.
Screening COCCN(CC(=O)NCc1ccc2c(c1)OCO2)C(=O)CCC(=O)Nc1nccs1 returned VDR inh -13%.
For O=C(CNC(=O)c1ccccc1)Oc1ccc([N+](=O)[O-])cc1 the results were VDR inh 19%.
For CC(=O)N1CCc2cc(C(=O)CN3CCN(c4ccccn4)CC3)ccc21 the results were VDR inh -18%.
`COc1nc(NCc2ccco2)nc(NC2CCCCC2)n1` gave VDR inh 9%.
For Cc1cccc(-c2nsc(SCC(=O)NCC3CCCO3)n2)c1 (stereo not given) the results were VDR inh -5%.
For COc1ccc2[nH]c(=O)c(CN(C(=O)c3cccc(Cl)c3)c3ccccc3C)cc2c1 the results were VDR inh 7%.
For COc1cc2nc(=S)n3[nH]c(CCn4c(C)nc5ccccc54)nc3c2cc1OC the results were VDR inh -1%.
Cc1ccc2nc(-c3ccc(C)o3)c(Nc3ccc4c(c3)OCO4)n2c1 was read as VDR inh 4%.
For Cc1ccc(-c2nnc(Nc3ccc(S(N)(=O)=O)cc3)c3ccccc23)cc1S(=O)(=O)N1CCOCC1 the results were VDR inh -14%.
Screening O=C(NCCc1csc(-c2ccc(C(F)(F)F)cc2)n1)C(=O)Nc1ccc(F)c(Cl)c1 returned VDR inh 2%.
For CCN1CCN(C(=O)Cn2nc(-c3ccc(Cl)cc3)ccc2=O)CC1 the results were VDR inh -5%.
COc1ccc(CNC(=O)c2cc(C(=O)C3CC3)c[nH]2)cc1 was read as VDR inh 6%.
`Cc1ccc(NC(=O)COC(=O)Cn2c(C)csc2=O)cc1S(=O)(=O)N1CCOCC1` gave VDR inh 1%.
For O=C(c1cc(C2CC2)nn1-c1ccccc1)N1CCN(c2ncc(C(F)(F)F)cc2Cl)CC1 the results were VDR inh -14%.
Screening O=C(NCc1ccc2c(c1)OCO2)c1cc2n(n1)C(C(F)(F)F)CC(c1ccc3c(c1)OCO3)N2 (stereo not given) returned VDR inh 10%.
Cc1cc(OCC(=O)Nc2ccc(N3CCN(C(=O)c4ccco4)CC3)cc2)cc(C)c1Cl was read as VDR inh 2%.
For Cc1cccc(N2C(=O)C(O)=C(C(=O)c3cccs3)C2c2cccc(Oc3ccccc3)c2)n1 (stereo not given) the results were VDR inh inconclusive.
CCc1ccc(NC(=O)Cn2nc(C(F)(F)F)c3c2CCCC3)cc1 was read as VDR inh -14%.
O=C(/C=C/c1ccco1)Nc1ccccc1N1CCCCC1 was read as VDR inh -10%.
CSc1nc(C)c(C(=O)Nc2ccccc2)c(-c2ccco2)c1C#N was read as VDR inh -5%.
For CCN(C(=O)CSc1nc2ccccc2c(=O)n1Cc1ccc(C)cc1)C1CCS(=O)(=O)C1 (stereo not given) the results were VDR inh -1%.
Screening COCCNC(=O)C(Cc1c[nH]c2ccccc12)NC(=O)OCc1ccccc1 (stereo not given) returned VDR inh 5%.
COc1ccc(/C(N)=N/OC(=O)CCC2CCCC2)cc1 was read as VDR inh -11%.
For Oc1ccc(-c2csc(Nc3ncccn3)n2)cc1 the results were VDR inh -16%.
For O=C(N/N=C\c1cc([N+](=O)[O-])ccc1N1CCOCC1)c1ccccn1 the results were VDR inh 0%.
Cc1cc(/C=C2/SC(=O)N(CC(=O)OC(C)C)C2=O)c(C)n1C was read as VDR inh 10%.
For O=C(N/N=C\c1cccc(OC(=O)c2ccco2)c1)c1ccc2c(c1)OCO2 the results were VDR inh 5%.
COc1cccc(CNC(=S)Nc2cc(OC)ccc2OC)c1 was read as VDR inh 9%.
`CCc1ccc(NC(=O)Cn2c(=O)n(CCC(=O)NCc3ccc4c(c3)OCO4)c(=O)c3ccccc32)cc1` gave VDR inh -2%.
Screening Cc1ccccc1-n1c(SCC(=O)c2ccccc2)nnc1-c1ccc(F)cc1 returned VDR inh 6%.
`O=C(CN(Cc1ccc(F)cc1)S(=O)(=O)c1ccccc1)N1CCCCC1` gave VDR inh 1%.
Screening Cc1ccc(CNC(=O)c2ccccc2NC(=O)CSc2nnnn2C)cc1 returned VDR inh 10%.
Screening CCOC(=O)N1CCN(S(=O)(=O)c2c(C)cc(C)cc2C)CC1 returned VDR inh -1%.
Screening O=C(NCCc1ccccc1)C1CCCN(S(=O)(=O)c2cccc3nsnc23)C1 (stereo not given) returned VDR inh -10%.
For COc1ccc(/C=C/c2c(-c3cccc(C)c3)oc3ccc(N4CCOCC4)cc23)cc1 the results were VDR inh -10%.
Screening CC(NC(=O)CN1CCN(C(=O)c2cccs2)CC1)c1ccc(F)cc1F (stereo not given) returned VDR inh 2%.
For O=C(CSc1nnnn1-c1ccccc1)Nc1ccc(Cl)cc1 the results were VDR inh -11%.
Screening Cc1cccc(C(=O)OCC(=O)NC(=O)Cc2ccccc2)c1O returned VDR inh -10%.
CN(CCOc1ccccc1)C(=O)C1CCN(C(=O)c2ccc(F)cc2)CC1 was read as VDR inh -6%.
For O=C(c1ccccc1)c1ccc(OCCCCN2CCCCC2)cc1 the results were VDR inh -5%.
Screening CCCCCOP(=O)(OCCCCC)C1(NS(=O)(=O)c2ccccc2)C=CC(=O)c2ccccc21 (stereo not given) returned VDR inh 4%.
`CCCCN(CC)CCNC(=O)c1cc2c(C)nc3ccccc3c2o1` gave VDR inh -10%.
Screening COc1ccc(Cl)cc1S(=O)(=O)N1CCN(C(=O)c2cc(OC)c(OC)c(OC)c2)CC1 returned VDR inh -1%.
Screening Cc1ccc(C(=O)CCC(=O)N2CCC(C(N)=O)CC2)s1 returned VDR inh 19%.
Fc1ccc(Nc2ncnc3c2nc2n3CCCCC2)c(F)c1 was read as VDR inh 0%.
`COc1ccccc1-c1sc2ccccc2c1-c1ccccc1OC` gave VDR inh -28%.
For CCCN(CCC)Cc1c(C(=O)N/N=C/C(C)=C\c2ccccc2)nnn1-c1nonc1N the results were VDR inh 5%.
`Cc1cccc(S(=O)(=O)NCCc2cn3ccccc3n2)c1` gave VDR inh -4%.

Some of the compounds tested; the hit share may differ from the screen's.
